Assay outcomes: PubChem, Johns Hopkins Ion Channel Center
KCNQ2 inh – KCNQ2 potassium channel inhibitors, primary screen, cell-based, CHO-K1, FluxOR thallium flux, B-score (AID 2156). O88943. 20 min; hits give low values; only compounds with negative scores are shown here; some inactives read as strong as hits. B-score at 10 µM. hit rate 1.1% among 310,000;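 active = fluorescence ratio B-score at most minus 3 library SDs, with starting brightness B-score within 2 library SDs, cut at about -5.5 in these data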
Target sequence (O88943 whole entry, looked up): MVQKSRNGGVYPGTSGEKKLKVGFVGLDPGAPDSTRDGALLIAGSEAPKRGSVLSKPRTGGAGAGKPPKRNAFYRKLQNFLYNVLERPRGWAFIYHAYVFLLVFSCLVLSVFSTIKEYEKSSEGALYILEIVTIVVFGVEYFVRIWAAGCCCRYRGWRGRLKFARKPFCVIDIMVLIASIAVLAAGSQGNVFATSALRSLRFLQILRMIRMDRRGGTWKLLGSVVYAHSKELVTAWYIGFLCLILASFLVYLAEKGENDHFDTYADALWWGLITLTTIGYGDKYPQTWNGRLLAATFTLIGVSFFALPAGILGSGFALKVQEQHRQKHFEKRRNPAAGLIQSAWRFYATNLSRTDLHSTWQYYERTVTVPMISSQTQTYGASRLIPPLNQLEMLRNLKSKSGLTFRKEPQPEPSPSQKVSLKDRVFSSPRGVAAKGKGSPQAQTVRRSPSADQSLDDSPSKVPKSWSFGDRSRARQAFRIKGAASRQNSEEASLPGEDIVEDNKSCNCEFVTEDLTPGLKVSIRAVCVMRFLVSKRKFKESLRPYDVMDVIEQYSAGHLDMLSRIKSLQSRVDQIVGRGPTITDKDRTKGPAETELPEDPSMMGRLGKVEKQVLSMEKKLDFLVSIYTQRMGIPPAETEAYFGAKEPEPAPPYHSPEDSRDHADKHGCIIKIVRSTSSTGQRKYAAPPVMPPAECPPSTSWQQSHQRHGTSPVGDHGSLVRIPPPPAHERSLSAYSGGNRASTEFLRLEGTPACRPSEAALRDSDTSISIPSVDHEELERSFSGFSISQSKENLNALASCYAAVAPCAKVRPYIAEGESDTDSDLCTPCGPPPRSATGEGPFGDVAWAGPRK
KCNQ2 inh baseline – further read-out of KCNQ2 inh, marked with its call; B-score; measured here: initial fluorescence intensity artifact check;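 brightness before thallium and not channel activity; 0 = typical well and far values either way flag optical interference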
* marks the source's active call; other numbers are inactive results; i = inactive. Not all compounds are listed; count on the stated rates, not on these rows.

The opening two records (preview)
structure | KCNQ2 inh | KCNQ2 inh baseline
CC(C)NS(=O)(=O)c1ccc(CCC(=O)Nc2ccc3c(c2)OCO3)cc1 | i | 0.13
O=S(Cc1ccc(Br)cc1)Cc1nnc(SCc2c(F)cccc2Cl)n1-c1ccccc1 (stereo not given) | i | -0.29

The whole of this part, from the start:
structure | KCNQ2 inh | KCNQ2 inh baseline
CC(C)NS(=O)(=O)c1ccc(CCC(=O)Nc2ccc3c(c2)OCO3)cc1 | i | 0.13
O=S(Cc1ccc(Br)cc1)Cc1nnc(SCc2c(F)cccc2Cl)n1-c1ccccc1 (stereo not given) | i | -0.29
COc1ccccc1N1CCN(C(=O)CN2C(=O)C3CCCCC3C2=O)CC1 (stereo not given) | i | 0.47
COc1ccc2nc(N3CCC(O)CC3)c(C#N)cc2c1 | i | 5.2
Cc1cc(=O)[nH]c(Nc2cccc(F)c2)n1 | i | 0.1
Cc1ccc(OCCCCN2CCC(C)CC2)cc1 | i | -0.02
O=C(CSc1nnnn1-c1ccccc1F)NNC(=O)c1ccco1 | i | -0.17
O=C(Nc1ccc(Oc2ncnc3cc(Cl)ccc23)nc1)c1cccs1 | i | 2
O=C1COc2ccc(S(=O)(=O)CCC(=O)N3CCN(c4ccccc4)CC3)cc2N1 | i | 0.11
CC(=O)c1c(C)[nH]c(C(=O)Nc2ccc(F)c(F)c2F)c1C | i | 0.72
COc1ccccc1-n1c(SCC(=O)Nc2cccc(C(=O)O)c2)nnc1-c1ccccc1C | i | -0.32
Cc1ccc(C(=O)N2CCCC(C(F)(F)F)C2)cc1S(=O)(=O)N1CCCCC1 (stereo not given) | i | 0.53
Cc1ccc(/C=C/c2nnc(-c3ccccc3)o2)cc1 | i | 1
Cc1csc(CNC(=O)c2cc(COc3c(C)cccc3C)on2)n1 | i | -0.47
Cc1nc(-c2ccc(Cl)cc2)sc1C1(C)CC(c2ccc(Cl)cc2)=NO1 (stereo not given) | i | -0.02
COc1ccc([C@@H]2[C@@H]3C(=O)N(C(C)(C)C)C(=O)[C@@H]3[C@]3(Cc4ccc(Cl)cc4)C(=O)N(c4ccc(Br)cc4)C(=O)N23)cc1 | i | -2
N/C(=N\OC(=O)c1ccc(Cl)c([N+](=O)[O-])c1)c1ccccn1 | i | -3.1
COc1ccc(NS(=O)(=O)c2ccc(O)c(C(=O)OCC(=O)Nc3ccc4c(c3)OCCO4)c2)cc1 | i | 0.34
COc1cc(S(=O)(=O)N2CCC(N3CCCCC3)CC2)ccc1-n1cnnn1 | i | 1.5
CSc1nnc2c(n1)OC1(Nc3ccccc3-2)C(=O)Nc2ccccc21 (stereo not given) | i | 0.93
CC(=O)N1c2ccc(S(=O)(=O)N3CCCCC3)cc2CC1C(=O)Nc1cccc(C)c1 (stereo not given) | i | -0.67
Cc1ccc(C)c(N2CCN(C(=O)CCc3nc4ccccc4[nH]3)CC2)c1 | i | 0.74
Cc1cccc(Nc2nnc(SCC3CCCCO3)s2)c1 (stereo not given) | i | 1.4
C=CCc1ccccc1OCC(O)CN1CCN(C(=O)OCC)CC1 (stereo not given) | i | -1.3
Oc1ccc(Cl)cc1-c1cc(-c2ccco2)[nH]n1 | i | 0.13

Single entries from above.
Under KCNQ2 inh baseline, O=C(CSc1nnnn1-c1ccccc1F)NNC(=O)c1ccco1 is entered as -0.17
Under KCNQ2 inh baseline, COc1ccc2nc(N3CCC(O)CC3)c(C#N)cc2c1 is entered as 5.2
Under KCNQ2 inh baseline, COc1ccccc1N1CCN(C(=O)CN2C(=O)C3CCCCC3C2=O)CC1 (stereo not given) is entered as 0.47

More results follow:
structure | KCNQ2 inh | KCNQ2 inh baseline
CC(C)(C)N(Cc1cc2ccccc2[nH]c1=O)C(=O)c1ccco1 | i | -0.54
CN1CCN(CCCNC(=O)c2ccc(/C=C3/Sc4ccccc4N(Cc4cccc(Cl)c4)C3=O)cc2)CC1 | i | -1.7
Cc1cc(OCC(=O)O)c2ccccc2n1 | i | -0.66
Cc1cc(=O)[nH]c2n[nH]c(-c3ccccc3)c12 | i | -0.01
CCN=C1SC(C(=O)Nc2cccc(OCC)c2)CC(=O)N1CC (stereo not given) | i | -0.7
COc1ccc(C(CC(=O)O)NC(=O)c2ccccc2[N+](=O)[O-])cc1 (stereo not given) | i | -0.23
CCN1CCN(c2cc(C(C)C)nc3c(-c4ccccc4)c(C)nn23)CC1 | i | -0.2
C=CCn1c(COc2ccccc2)nnc1SCC(=O)N/N=C/c1cc(Cl)ccc1O | -6.4* | 0.56*
O=C1OCCC1Sc1nnc(-c2ccc3c(c2)OCO3)o1 (stereo not given) | i | 1.8
CC(NC(=O)c1ccc(Br)s1)C1CCCO1 (stereo not given) | i | -0.78
COc1cc(NC(=O)c2ccccc2)c(OC)cc1Cl | i | 0.01
O=C(COC(=O)[C@H](Cc1ccccc1)NC(=O)c1cccs1)Nc1c(Cl)cccc1Cl | i | -0.3
COCCNC(=O)CCCC(=O)NCCOC | i | -0.01
COc1ccc(N(C)C(=O)c2cc3c(s2)-c2ccccc2OC3)c(OC)c1 | i | 0.22
Cc1ccc(-c2csc(=Nc3cccnc3)n2CCCn2ccnc2)cc1C | i | 1.4
COC(=O)C(NS(=O)(=O)c1ccc(C)cc1)c1ccccc1 (stereo not given) | i | 0.99
CCOC(=O)C(=CN=C(N)Nc1nc2ccccc2o1)C(=O)OCC | i | 1.8
Cc1ccc(Oc2nc3ccccc3n3cccc23)cc1 | i | 2.3
Cc1[nH]c(=O)c(C#N)c2c1CSC(C)(C)C2 | i | 2.1
CC(Oc1ccc2c(-c3ccccc3)cc(=O)oc2c1)C(=O)N[C@H](Cc1c[nH]c2ccccc12)C(=O)O (stereo not given in full) | i | 0.02
COc1ccc(C(C(=O)NC2CCCCC2)N(Cc2cccnc2)C(=O)c2snc(C(N)=O)c2N)cc1 (stereo not given) | i | -0.02
O=C(N/N=C/C=C/c1ccccc1)C(O)c1ccccc1 (stereo not given) | i | 1.4
CCCc1nnc(NC(=O)Cn2c(=O)sc3ccccc32)s1 | i | -0.16
CC(C)OCCCn1c(NN)nc2ccccc2c1=O | i | 1.3
COc1cc(OC)c(NC(=S)NCc2ccc(F)cc2)cc1Cl | i | -1.8

6 compounds picked at random from the list so far:
structure | KCNQ2 inh | KCNQ2 inh baseline
Cc1ccc(-c2csc(=Nc3cccnc3)n2CCCn2ccnc2)cc1C | i | 1.4
COCCNC(=O)CCCC(=O)NCCOC | i | -0.01
Cc1cc(OCC(=O)O)c2ccccc2n1 | i | -0.66
C=CCn1c(COc2ccccc2)nnc1SCC(=O)N/N=C/c1cc(Cl)ccc1O | -6.4* | 0.56*
Cc1ccc(Oc2nc3ccccc3n3cccc23)cc1 | i | 2.3
CN1CCN(CCCNC(=O)c2ccc(/C=C3/Sc4ccccc4N(Cc4cccc(Cl)c4)C3=O)cc2)CC1 | i | -1.7

Remaining list, next part:
structure | KCNQ2 inh | KCNQ2 inh baseline
O=C(NC(=S)N1CCN(c2ccc([N+](=O)[O-])cc2)CC1)c1ccccc1F | i | -0.56
CC(C)(C)C(=O)OCCn1c(=O)c2cc3c(=O)n(CCOC(=O)C(C)(C)C)c(=O)c3cc2c1=O | i | 0.02
CCCCc1nn2c(N)c(/C=C3\C=Nc4ccccc43)c(=O)nc2s1 | i | 1.5
O=[N+]([O-])c1cnn(-c2nc(-c3ccccc3)cc(C(F)(F)F)n2)c1 | i | 0.27
Cc1ccc(C(=O)NS(=O)(=O)c2ccccc2)cc1 | i | 1.5
Cc1csc(NC(=O)CSCc2c(C)noc2C)n1 | i | -0.61
Cc1ccnc(NS(=O)(=O)c2ccc(NC(=O)Cc3ccc(F)cc3)cc2)n1 | i | 0.77
Cn1c(C(=O)NCCN2CCOCC2)cc2c(=O)n3ccccc3nc21 | i | 0.67
Cc1occc1C(=O)N1CCCC(Nc2ccc(C(C)C)cc2)C1 (stereo not given) | i | 0.55
CN(C)/C(=N\S(=O)(=O)c1ccc(F)cc1)c1ccccc1 | i | 2.2
CCOc1cc(/C=N/NC(=O)c2cccs2)cc([N+](=O)[O-])c1O | i | 0.34
Cc1ccc(-c2nc(CS(=O)(=O)CC(=O)N3CCN(C)CC3)c(C)o2)cc1 | i | -0.32
O=C(CCS(=O)(=O)c1cc2c(cc1Cl)NC(=O)CO2)NCCc1ccccc1 | i | 1.4
O=c1c2sc3nc(N4CCOCC4)c4c(c3c2ncn1CCc1ccccc1)CCCC4 | i | 0.65
O=C(CSc1nnc(Cc2ccccc2)o1)Nc1cccc(F)c1 | i | -1.6
CCC/C(O)=C1\C(=O)CC(C)(C)CC1=NCCO | i | 1.1
C[C@H](NC(=O)c1nc[nH]c1C(=O)N1CCN(c2ccccc2)CC1)C(=O)OC(C)(C)C | i | -0.21
O=[N+]([O-])c1cc(-c2nnc(C34CC5CC(CC(C5)C3)C4)o2)cc([N+](=O)[O-])c1 | i | 2
O=C(O)c1cn(CCOc2ccccc2Cl)c2ccccc12 | i | -0.57
O=C(Nc1ccc(N2CCN(C(=O)c3ccccc3)CC2)c(Cl)c1)c1ccco1 | i | -1.1
Cc1ccsc1/C=C(\C#N)C(=O)NCc1ccco1 | i | 1.5
O=C(CNC(=S)N(Cc1ccccc1)Cc1cccnc1)NC1CCCC1 | i | 0.12
O=C(CCN1CCN(c2ccccc2)CC1)N/N=C/c1ccc([N+](=O)[O-])o1 | i | 1.7
CN(CCc1ccccc1)Cc1nc(-c2cnccn2)no1 | i | 0.64
CC1CCCN(C(=O)C2CCCN(S(=O)(=O)c3cccc4nsnc34)C2)C1 (stereo not given) | i | -1.5

Going on with the list:
structure | KCNQ2 inh | KCNQ2 inh baseline
CCCCN(C(=O)Oc1ccccc1)C1CCS(=O)(=O)C1 (stereo not given) | i | -0.01
COc1ccc(-n2nc3c(N4CCC(C(=O)NCC(C)c5ccccc5)CC4)nnc(C)c3c2C)cc1 (stereo not given) | i | 2.9
O=C(Nc1ccc(Cl)cc1)c1ccsn1 | i | -0.04
OCCn1c(-c2ccc(F)cc2)csc1=Nc1ccccc1 | i | -0.83
COC(=O)c1ccc(C(=O)OC)c(NC(=O)COc2ccccc2OC)c1 | i | -0.11
COc1ccc(C(=O)N/N=C/C2CC=CCC2)cc1OC (stereo not given) | i | 0.97
Cn1c(-c2ccc(F)cc2)cnc1SCC(=O)NCc1ccco1 | i | 1.2
COc1ccc(C)cc1NC(=O)CCCNC(=O)Cn1cnc2sc(C)c(C)c2c1=O | i | 0.22
COc1ccc(OC)c(/C=C2\SC(=S)N(Cc3cccnc3)C2=O)c1 | i | -0.61
Fc1cccc(CO/N=C/c2c(-c3ccccc3)nc3ccc(Cl)cn23)c1 | -6.8* | 1.7*
CCN(CCCNC(=O)Cn1ncc2c([nH]c3ccc(C)cc32)c1=O)c1ccccc1 | i | 0.81
Cc1ccccc1OCCCN1C(=O)C(=O)c2cccc(C)c21 | i | -1.3
CCOC(=O)c1c(NC(=O)c2cccs2)sc2c1CCC2 | i | 0.76
COc1ccc(NC(=S)N(CCCN2CCOCC2)Cc2cn(C)c3ccccc23)cc1OC | i | -0.83
COc1ccccc1CNC(=O)c1ccccc1NS(C)(=O)=O | i | -0.08
Cc1cccc(NC(=O)CCCCC(=O)Nc2cccc(C)c2)c1 | i | 0.6
Cc1nc2cc(NCc3nc4ccccc4n3Cc3ccccc3)ccc2n1C | i | -1.4
CC1CCCC(C)N1C(=O)COC(=O)CNC(=O)c1ccc(Cl)cc1Cl (stereo not given) | i | 0.68
COc1cccc(Nc2nc(-c3sc(NC(=O)c4ccccc4)nc3C)cs2)c1 | i | -1.4
O=C(CNCCc1ccc(Cl)cc1)Nc1ccc(C(=O)N2CCCCC2)cc1 | i | -0.16
O=C(NN=C1CCCC1)c1cccc(O)c1 | i | -0.79
CCC(C(=O)NC1CCCC1)N(C(=O)Cn1nnc(-c2ccc(C)o2)n1)c1ccccc1OC (stereo not given) | i | -2.7
CC(C)CN(C(=O)COC(=O)c1ccccc1NCc1ccco1)c1c(N)n(Cc2ccccc2)c(=O)[nH]c1=O | i | -0.45
CC(C)OP(=O)(c1ccc(N(C)C)cc1)C(Nc1ccccc1)c1cccnc1 (stereo not given) | i | -0.17
CCCC(Oc1ccc(Br)cc1)c1nc2c3cc(OC)c(OC)cc3nc(=S)n2[nH]1 (stereo not given) | i | 2.5

Additional results follow.
structure | KCNQ2 inh | KCNQ2 inh baseline
CCOc1ccccc1C1N(c2ccc(OC)cc2)C(=O)C2CCCN21 (stereo not given) | i | 1.9
CC(C(=O)Nc1ccc(S(=O)(=O)N2CCCC2)cc1)N1CCN(C(=O)c2ccco2)CC1 (stereo not given) | i | 0.18
CCCCc1c(O)nc(SCC(=O)NCCc2ccc(OC)c(OC)c2)[nH]c1=O | i | -1.8
COc1cc(-c2nnc(SCc3cc(=O)oc4cc(C)ccc34)o2)cc(OC)c1OC | i | -0.52
Cn1c(SCc2nnc(-c3ccc(F)cc3)o2)nnc1C1COc2ccccc2O1 (stereo not given) | i | -0.42
O=S(=O)(NCC(c1ccc2c(c1)OCO2)N1CCN(c2ccccc2)CC1)c1ccccc1 (stereo not given) | i | -1.4
CCOC(=O)C1C(=O)NC(SCC(=O)Nc2nccs2)=C(C#N)C1c1ccccc1OCC (stereo not given) | i | -0.73
CN1CCN(CCCOc2ccc(-c3ccccc3)cc2)CC1 | i | -0.88
Cc1cc(C)c2c(-n3cccc3)c(C(=O)NNS(=O)(=O)c3ccc(Br)cc3)sc2n1 | i | -1
Cc1cccc(-c2nsc(SCC(=O)Nc3cc(C)on3)n2)c1 | i | 0.76
COc1ccc(CNC(=O)C2CCC(=O)N2C(C)C)c(OC)c1 (stereo not given) | i | -1.7
CCOC(=O)c1sc(NC(=O)COC(=O)C(CCSC)NC(C)=O)nc1C (stereo not given) | i | 0.18
COc1ccc(-c2c(C(F)(F)F)nn(C)c2NC(C)=O)cc1 | i | 0.56
Cc1ccc2c(N)[nH]nc2n1 | i | -1.3
CCCCNC(=O)/C(C#N)=C/c1ccc(F)cc1F | i | 0.06
COc1ccccc1OCc1cc(-c2ccccc2)no1 | i | 0.31
CCc1ccc(OCCNC(=O)c2cc(SC)ccc2Cl)cc1 | i | -1.2
